Biofilm kill mix: mixture kills Candida albicans biofilm cells; AID 1242; inhibition, % at 7.6 µM; C. albicans biofilm persisters + clotrimazole, fluorescence viability; primary screen in compound mixtures of four per well; actives 0.02% (n = 120,000);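 active = inhibition above 30.3% in the primary screen of four-compound pools, then above 30% when the compound was retested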;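 note: compounds exposed to preformed 24 h biofilms for 48 h; the number belongs to the whole pool; some results filed as inactive read as strong as hits; inactives centre near 12; 0% = biofilm with clotrimazole alone and 100% = kill control; retested singly at about 60 µM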
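Incubation: 24 h biofilm formation, then 48 h compound exposure, 37 °C | Material: C. albicans biofilms | Buffer or medium: RPMI/MOPS medium, pH 7.0 | Measured by: 2-h Alamar Blue fluorescence, 535/590 nm excitation/emission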
* marks the source's active call; other numbers are inactive results. An excerpt. The share of hits here may be higher or lower than overall.

SMILES | Biofilm kill mix
CCOC(=O)c1sc2nc3n(c(=O)c2c1C)CCC3 | 15
Cc1cc(C(=O)O)ccc1-n1c(C)cc(/C=C(/C#N)C(=O)Nc2ccccc2)c1C | 14
COC(=O)Nc1ccc(Cn2cc(C(F)(F)F)ccc2=O)cc1 | 10
COC(=O)c1ccc(C23CC4(C2)[C@H](CN(Cc2cccnc2)[C@@H]4c2ccccc2)C3c2ccc(C(F)(F)F)cc2)cc1 (some centres undefined) | 16
CC1C(=O)C(C)(C)C(=O)OC1c1ccccc1 (centres undefined) | 24
CCCCN1C(=O)CC(C(=O)OCC)=C1C | 1
CN(Cc1cnccn1)Cc1nc(Cc2ccccc2F)no1 | 6
CC1CCN(CCCn2c(SCC(=O)Nc3ccccc3Cl)nc3ccccc3c2=O)CC1 | 18
CC(c1ccccc1)N1CC(C(=O)O)CC1=O (centres undefined) | 19
CC(=O)NCC(=O)N[C@@H](CC(=O)OCc1ccccc1)C(=O)OCc1ccccc1 | 11
COc1ccc(C2CC(c3ccc(Cl)cc3)=NN2C(=O)c2cccc([N+](=O)[O-])c2)cc1 (centres undefined) | 18
CCOC(=O)C1(Cc2ccc(OC)cc2)CCN(C(=O)[C@@H]2CCCN2C(C)=O)CC1 | 21

Six entries out of the list, arranged by SMILES length, rising:
SMILES | Biofilm kill mix
CCCCN1C(=O)CC(C(=O)OCC)=C1C | 1
CC(c1ccccc1)N1CC(C(=O)O)CC1=O (centres undefined) | 19
CCOC(=O)c1sc2nc3n(c(=O)c2c1C)CCC3 | 15
COC(=O)Nc1ccc(Cn2cc(C(F)(F)F)ccc2=O)cc1 | 10
CCOC(=O)C1(Cc2ccc(OC)cc2)CCN(C(=O)[C@@H]2CCCN2C(C)=O)CC1 | 21
COc1ccc(C2CC(c3ccc(Cl)cc3)=NN2C(=O)c2cccc([N+](=O)[O-])c2)cc1 (centres undefined) | 18

Other structures:
SMILES | Biofilm kill mix
CC(C)c1nc2sc3c(=S)nc[nH]c3c2c2c1CCC2 | 24
CCN(C(=O)Cc1c(C(=O)O)[nH]c2ccccc12)c1ccc(OC)cc1 | 7
C/C(=N\OCC(=O)Nc1ccc(Br)cc1)c1cccs1 | 12
Cc1ccccc1NN=Nc1nc2c([nH]1)c(=O)n(C)c(=O)n2C | 4
O=C(NNC(=O)c1ccccn1)c1cccc([N+](=O)[O-])c1 | 10
CC(C)Cn1c(N)c(C(=O)CSc2ncnc3sc4c(c23)CCCC4)c(=O)n(C)c1=O | 2
CCn1c(SCc2nc3ccccc3c(=O)[nH]2)nc2ccccc21 | -7
C[C@@H](C(=O)O)[C@@H]1C[C@@]1(C)[C@@H](NC(=O)OCc1ccccc1)c1ccccc1 | -4
O=C1CSC(c2cccnc2)N1CC1CC1 (centres undefined) | 13
CC(Cc1ccccc1)C(=O)N[C@@H](CO)Cc1ccccc1 (some centres undefined) | 5
Cc1ccc(/C=C/C(=O)c2ccccc2O)cc1 | 6
O=C(c1ccccc1)c1nc2c(n1O)CCCCC2 | -4
Cc1c(CN2CCC(CO)(CCOc3ccccc3)CC2)[nH]c2c(Cl)cccc12 | 24
O=C1NC(c2ccc(-c3ccccc3[N+](=O)[O-])o2)C(C(=O)c2ccc(F)cc2)C(O)(C(F)(F)F)N1 (centres undefined) | 22
Cc1c(NC(=O)C(C)N2C(=O)C3CCCCC3C2=O)c(=O)n(-c2ccccc2)n1C (centres undefined) | 11
S=c1[nH]nc(-c2ccccn2)n1/N=C/c1ccc(-c2ccccc2Br)o1 | 9
Cc1ccc(/C=C/S(=O)(=O)Nc2ccc(C)cc2)cc1 | 28
Cc1cccc(-c2nc(C#N)c(NCC3CCCO3)o2)c1 (centres undefined) | 19
Cc1ccc(C2=NC(C(F)(F)F)(C(F)(F)F)c3c(n(-c4ccc(F)cc4)c(=O)[nH]c3=O)N2)cc1 | 5
N#Cc1cc2ccccc2nc1N | 13
Cc1ccc2nc(SCC(=O)N3CCN(c4ccccc4)CC3)[nH]c2c1 | 14
CC1(C)C(=O)OC(/C=C/c2cccc([N+](=O)[O-])c2)C(C)(C)C1=O (centres undefined) | 12
COc1cc(-c2nnc(-c3ccccc3)o2)cc(OC)c1OC | -6
COc1cc(CN2CCNC(=O)C2CC(=O)NCCc2ncccc2C)cc(OC)c1 (centres undefined) | 16
O=C(Nc1ccccc1N1CCCCC1)c1ccc(-c2cccc(Cl)c2)o1 | 12
COc1ccc(C(=O)NC(=S)N(CCC(C)C)c2c(N)n(Cc3ccccc3)c(=O)[nH]c2=O)cc1 | 21
COc1ccc(NC(=S)N/N=C2\CC(C)(C)Oc3ccc(OC)cc32)cc1 | 1
Nc1ncnc2c1nc(SCCO)n2Cc1ccccc1 | -2
COc1cc(/C=N/Nc2ccccc2)ccc1OC(=O)c1cccs1 | -7
COc1ccc(CNC(=O)C(Cc2ccccc2)n2cccc2)cc1 (centres undefined) | 24
O=C(Nc1nc2ccc(S(=O)(=O)N3CCOCC3)cc2s1)c1cccs1 | 11
COc1cc(O)c(C(CC(=O)N2CCCC2)c2ccc(N(C)C)cc2)c(OC)c1 (centres undefined) | 8
CCOC(=O)c1cccnc1NC(=O)c1ccccc1 | 6
O=C(NC(c1ccccc1)c1ccccc1)C1CCCO1 (centres undefined) | 11
CCCCOc1ccc(C(=O)Nc2ccc3c(c2)OCO3)cc1 | 6
COc1ccc(/C=N/NC(=O)c2ccc(Cl)cc2Cl)cc1COC(C)=O | 10

Next section, starting with the last 2 of the part before.
SMILES | Biofilm kill mix
CCCCOc1ccc(C(=O)Nc2ccc3c(c2)OCO3)cc1 | 6
COc1ccc(/C=N/NC(=O)c2ccc(Cl)cc2Cl)cc1COC(C)=O | 10
C=CCN1C(=O)S/C(=C\c2ccc3c(c2)n(C)c(=O)n3C)C1=O | 13
COC(=O)c1cccc(NC(=O)c2cc(OC)c(OC)c(OC)c2Br)c1 | 18
CCC(=O)Nc1cccc(C2=NOC3(C2)C[C@@H](C(N)=O)N(C(=O)CC(c2ccccc2)c2ccccc2)C3)c1 (some centres undefined) | 12
Cc1cccc(Cn2c(C)nc3c(N)c(C)c(C)cc32)c1 | 1
OC(CNCc1ccccc1F)(c1ccc(F)cc1)c1ccc(F)cc1 | 6
CC(C)C(=O)Nc1cccc(C(=O)Nc2cc([N+](=O)[O-])ccc2F)c1 | 10
CCOCCCNC(=O)C(NC(=O)c1ccccc1O)c1ccc(Cl)cc1 (centres undefined) | 7
O=C(Cn1c(=O)n(-c2ccccc2)c(=O)c2oc3ccccc3c21)Nc1ccccc1 | 20
Cc1cc(C)nc(OC(=O)c2c(Cl)cc(Cl)cc2Cl)n1 | 6
CC(=O)N/C(=C\c1ccc2c(c1)OCO2)C(=O)NC(C(=O)O)c1ccccc1 (centres undefined) | 21
CC(NC(=O)/C=C/c1ccco1)c1nc2ccccc2n1Cc1ccccc1F (centres undefined) | 18
O=C(CSCc1ccc(Cl)cc1Cl)Nc1c[nH]c(=O)[nH]c1=O | 11
Cc1ccc(-c2cc([C@H]3[C@@H]4C=CCC[C@@]4(C)C(=O)N3Cc3ccccc3)ccc2F)cc1 | 19
O=S(=O)(Nc1ccc(Br)cn1)c1cccs1 | 15
CC1(C)OC(=O)N2CCc3ccccc3C21C (centres undefined) | 10
C=CCCc1ccc(C#N)c(SCc2c(C(=O)OCC)c3cc(OC(C)=O)c(Br)cc3n2C)n1 | 12
COc1nc(Nc2cccc([N+](=O)[O-])c2)nc(OC)n1 | 2
Oc1ccc(-c2nc3ccccc3s2)cc1 | 27
Cc1cccc(NC(=S)Nc2cccc(C(F)(F)F)c2)n1 | 13
Cc1ccccc1NC(=S)NCc1ccco1 | 7
CC1C=CCC2C(=O)N(c3ccc(Cl)cc3O)C(=O)C12 (centres undefined) | -5
OCCC1CN(Cc2cnc(-c3cccc4ccccc34)nc2)CCN1C1CCCCC1 (centres undefined) | 4
COc1ccc(CCNC(=O)CSCC(=O)Nc2ccccc2)cc1OC | 8
CCCOc1ccc(Cn2c(=O)oc3ccc(C)cc32)cc1OC | 20

The last 5 compounds of the section above lead into the next.
SMILES | Biofilm kill mix
Cc1ccccc1NC(=S)NCc1ccco1 | 7
CC1C=CCC2C(=O)N(c3ccc(Cl)cc3O)C(=O)C12 (centres undefined) | -5
OCCC1CN(Cc2cnc(-c3cccc4ccccc34)nc2)CCN1C1CCCCC1 (centres undefined) | 4
COc1ccc(CCNC(=O)CSCC(=O)Nc2ccccc2)cc1OC | 8
CCCOc1ccc(Cn2c(=O)oc3ccc(C)cc32)cc1OC | 20
C/C(=N\NC(N)=O)c1ccccc1Cl | -2
Cc1ccccc1-c1nnc(SCC#N)o1 | 19
Cc1noc(C)c1-c1nc(CSc2ccc(Cl)cc2)no1 | 19
COc1cc(C(=O)NCCCn2ccnc2)cc(OC)c1OC | 20
Fc1ccc2[nH]c3c(N4CCc5ccccc5C4)ncnc3c2c1 | 9
Cc1ccc(-n2cc(CN(C)Cc3nccn3C)c(-c3cccc(C)c3)n2)cc1 | 9
CCN1CCN(CCNC(=O)c2ccc3c(c2)N(Cc2ccc(F)cc2)C(=O)/C(=C/c2ccccc2)S3)CC1 | 1
Cc1nn(C)c(Cl)c1CN1CCCC(CO)(Cc2ccccc2)C1 (centres undefined) | 15
COc1ccc(C(=O)NNC(=S)NC(=O)C(C)(C)C)cc1 | 12
CC1CN(C(=O)COC(=O)[C@@H]2CC(O)CN2S(=O)(=O)c2ccc3c(c2)OCCO3)CC(C)O1 (some centres undefined) | 7
COc1cccc2c(=O)n(CC(=O)NCCc3ccccc3)ccc12 | 10
O=C(COC(=O)c1n[nH]c2ccccc12)c1cc(F)ccc1F | 14
COc1ccc(C(CNC(=O)Cc2c(F)cccc2Cl)N2CCCCC2)cc1 (centres undefined) | 16
Cc1onc(-c2ccccc2)c1C(=O)N/N=C/c1cccc(O)c1 | 13
Cc1ccc(NC(=O)C(C)N2CCCC2)cc1Cl (centres undefined) | 11
COc1cc2nc(Cl)nc(NCCO)c2cc1OC | -5
COc1ccc(Nc2nc3nonc3nc2N2CCCCC2)cc1 | 30
O=C(CCN1CCOCC1)c1ccc(Br)cc1 | 10
O=C(CSc1ncnc2c1cnn2-c1ccc(Cl)cc1)NCc1ccc2c(c1)OCO2 | 14
O=c1c2ccccc2nc2c3ccccc3c(Cl)nn12 | 2
O=C(Cc1ccc(Br)c2ccccc12)N/N=C/c1ccccn1 | 19
Cc1cc(SCC(=O)OCC(=O)NCC2CCCO2)c(C)cc1Br (centres undefined) | 22
CC(C)c1ccccc1NC(=S)NCc1nc2ccccc2[nH]1 | 5
O=[N+]([O-])c1ccc(N/N=C2\CC3CC=CC23)c([N+](=O)[O-])c1 (centres undefined) | 4
CC(Sc1ncnc2ccccc12)C(=O)Nc1ccc2c(c1)OCCO2 (centres undefined) | 23
Cc1cc(C)cc(OCC(=O)O/N=C(\N)c2cccnc2)c1 | 21
COCCOc1ccc(C(F)(F)F)cc1N | 13
COc1cccc(C2(O)CCN(CC(=O)NCC3CC3)CC2)c1 | 10
Cn1c(=O)c2nc3ccccc3nc2n(C)c1=O | 15
O=C(N/N=C/c1ccc2c(c1)OCO2)c1ccc(NS(=O)(=O)c2cccs2)cc1 | 16
CN(C)c1ccc(/C=C(/C(=O)c2ccc(Cl)cc2Cl)n2cncn2)cc1 | 19
CCCCNS(=O)(=O)c1ccc2nc(SCC(=O)Nc3cccc(F)c3)[nH]c2c1 | 13
Cc1ccc(S(=O)(=O)N2CCCC(CCC(=O)NCc3ccccc3F)C2)s1 (centres undefined) | 12
CS(=O)(=O)c1ccc(C(=O)NCc2ccc(F)cc2)cc1 | 18
Cc1cc(C)n(-c2ncc(C#N)cn2)n1 | 16
CCN1CCC(NC(=O)Nc2ccccc2C(=O)OC)CC1 | 15
O=C(Nc1ccc(Cl)c(Cl)c1)Nc1nccs1 | 16
O=[N+]([O-])c1cc(Cl)ccc1Oc1ccc(-c2nnco2)cc1 | 6
Cc1ccc(S(=O)(=O)N(C)C)cc1NC(=O)c1c(-c2c(F)cccc2Cl)noc1C | 5
CCOc1cc(C(=O)Nc2ccccc2F)cc(Br)c1OCC | 15
CCOC(=O)N1CCC(N2CCCC(C(=O)c3cc(C)c(OC)c(C)c3)C2)CC1 (centres undefined) | -2
O=C1CSC(c2cccnc2)N1c1ccc(Cl)cc1 (centres undefined) | 5
CCCNC(=O)NC(=O)CSc1nc(C)cs1 | 9
O=C(Nc1cccc(C(F)(F)F)c1)c1ccccc1NC(=O)C1CCCCC1 | 9
COc1ccccc1NS(=O)(=O)c1ccc(Cl)c(NC(=O)c2sc3cc(Cl)ccc3c2Cl)c1 | -2
COc1ccc2cc(/C=N/O)c(Cl)nc2c1 | 4
CCN(CC)c1ccc(NS(=O)(=O)c2ccc(OC)cc2)cc1 | 0
Cc1ccsc1CN1CC(=O)N(c2c(C)cccc2C)C1=S | -2
COC1=C/C(=C/c2c(N)n3nc(-c4ccc(C)cc4)sc3nc2=O)C=CC1=O | 32
O=C(Nc1nc2cc3c(cc2s1)OCCO3)c1cccc(N2C(=O)CCC2=O)c1 | 11
Cc1ccc2cccc(N=Cc3c(C)[nH]n(-c4ccccc4)c3=O)c2n1 | -3
O=C(NCc1ccccn1)C1CCN(C(=O)c2cc3sccc3n2Cc2ccc(F)cc2)CC1 | 20
Cc1ccc(S(=O)(=O)NC(Cc2ccccc2)C(=O)O)cc1 (centres undefined) | 5
CCOC(=O)CCCn1nc(C)n2c(cc3sccc32)c1=O | 15
COc1ccccc1-n1c(Cc2cccs2)n[nH]c1=S | 6
COC(=O)NNC(=O)Cc1cccc2ccccc12 | 7
O=C(CSc1cccc[n+]1[O-])Nc1cccc(Oc2ccccc2)c1 | 10

Bioassay records deposited in PubChem BioAssay by PCMD.
